HIV Env fusion = HIV envelope-mediated fusion inhibition; inhibition, % at 12.3 µM; 360,000 tested, 1.1% active; AID 651610; HeLa-JRFL Env/CEM21 cell fusion, luciferase;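 active = mean replicate inhibition score of at least 50 and every replicate individually at or above 50; inconclusive = only one of the two criteria met; inactive = mean below 50 and not all replicates reaching 50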;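 note: 0% = plate neutral controls and 100% = maraviroc near 300 nM; one replicate is shown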
Yeast UUG start = modulators of start codon recognition fidelity in yeast. AID 602363. 350,000 tested, 0.13% active. activity score, % at 18.7 µM. S. cerevisiae UUG-firefly luciferase reporter, luminescence/redox ratio;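 active = replicate mean at a twofold rise or more, about +100% in these data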;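 note: firefly luciferase made from a UUG start codon reports start codon fidelity; reporter light over untreated wells divided by growth signal over untreated wells; some hits fall short of that in this replicate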
* marks the source's active call; other numbers are inactive results; ? = inconclusive; [ ] = remark or other dose. Not all compounds are listed. The share of hits here may be higher or lower than overall.

canonical_smiles	HIV Env fusion	Yeast UUG start
COc1ccc(S(=O)(=O)N(C)C[C@H]2Oc3ccc(NC(=O)Nc4cccc5ccccc45)cc3C(=O)N([C@@H](C)CO)C[C@H]2C)cc1	-20.0[16.7 µM]	-13.6
O=C(Nc1ccccc1F)N[C@H]1C=C[C@@H](CC(=O)N2CCCCC2)O[C@@H]1CO	-8.7[16.7 µM]	-6.7
COCC(=O)N[C@@H]1C=C[C@H](CC(=O)NCc2ccccc2OC)O[C@@H]1CO	4.9[16.7 µM]	-1.5
CC(C)NC(=O)N(C)C[C@@H]1OCCCC[C@H](C)Oc2ccc(NC(=O)Nc3ccc4c(c3)OCO4)cc2C(=O)N([C@H](C)CO)C[C@@H]1C	27.6[16.7 µM]	2.0
C[C@@H]1CCCCO[C@@H](CN(C)S(=O)(=O)c2ccccc2)[C@@H](C)CN([C@H](C)CO)C(=O)c2cc(NC(=O)c3ccncc3)ccc2O1	-13.1[16.7 µM]	-27.4
CC(C)CC#Cc1ccc2c(c1)O[C@@H](CN(C)C(=O)Cc1ccccn1)[C@H](C)CN([C@H](C)CO)S2(=O)=O	-10.3[16.7 µM]	-0.8
C[C@@H]1CN([C@H](C)CO)C(=O)Cc2cc(NC(=O)CCN3CCOCC3)ccc2O[C@@H]1CN(C)S(=O)(=O)c1ccc(Cl)cc1	-24.0[16.7 µM]	1.3
CNC[C@@H]1OCCCC[C@@H](C)Oc2ccc(NC(=O)c3ccccc3)cc2C(=O)N([C@@H](C)CO)C[C@@H]1C	11.3[16.7 µM]	-7.5
COc1ccc(-c2cnc3c(c2)C(=O)N([C@H](C)CO)C[C@H](C)[C@H](CN(C)S(=O)(=O)c2ccc(F)cc2)O3)cc1	5.8[16.7 µM]	12.2
C[C@@H]1CN([C@H](C)CO)C(=O)c2cc(C3=CCCC3)cnc2O[C@@H]1CN(C)S(C)(=O)=O	-23.2[16.7 µM]	-10.7
COc1ccc(S(=O)(=O)Nc2ccc3c(c2)C(=O)N([C@H](C)CO)C[C@H](C)[C@H](CN(C)Cc2ccncc2)OCCCC[C@@H](C)O3)cc1	-5.0[16.7 µM]	7.1
CN(C)CCCNC(=O)C[C@H]1CC[C@H]2[C@H](COc3ccc(NC(=O)NC4CCCC4)cc3C(=O)N2C)O1	-12.4[16.7 µM]	-9.0
C[C@@H]1CCCCO[C@@H](CN(C)CC2CCCCC2)[C@H](C)CN([C@@H](C)CO)C(=O)c2cc(NS(=O)(=O)c3cn(C)cn3)ccc2O1	51.2[16.7 µM]	-22.1
COc1ccccc1C#Cc1ccc2c(c1)O[C@@H](CN(C)Cc1ccccc1)[C@@H](C)CN([C@@H](C)CO)S2(=O)=O	25.2[16.7 µM]	-4.3
O=C(C[C@H]1C[C@@H]2c3cc(NC(=O)Nc4ccc(C(F)(F)F)cc4)ccc3O[C@@H]2[C@@H](CO)O1)NC1CCCCC1	-1.5[16.7 µM]	1.2
C[C@H]1CN([C@@H](C)CO)C(=O)Cc2cc(NC(=O)Cn3cnnn3)ccc2O[C@H]1CN(C)C(=O)NC1CCCCC1	-15.2[16.7 µM]	-3.5
C[C@@H]1CN([C@@H](C)CO)C(=O)c2cc(/C=C/c3ccccc3)cnc2O[C@H]1CN(C)S(C)(=O)=O	24.9[16.7 µM]	24.8
Cc1noc(C)c1S(=O)(=O)Nc1ccc2c(c1)C(=O)N([C@H](C)CO)C[C@H](C)[C@H](CN(C)C(=O)Cc1ccccc1)OCCCC[C@H](C)O2	-8.6[16.7 µM]	11.1
CC(C)NC(=O)Nc1ccc2c(c1)C(=O)N([C@@H](C)CO)C[C@@H](C)[C@@H](CN(C)Cc1ccccc1)OCCCC[C@@H](C)O2	26.1[16.7 µM]	34.8
COCC#Cc1cnc2c(c1)C(=O)N([C@H](C)CO)C[C@H](C)[C@@H](CN(C)S(=O)(=O)c1cccc(OC)c1)O2	-25.5[16.7 µM]	24.4

The last three records of the part above lead into the next.
canonical_smiles	HIV Env fusion	Yeast UUG start
Cc1noc(C)c1S(=O)(=O)Nc1ccc2c(c1)C(=O)N([C@H](C)CO)C[C@H](C)[C@H](CN(C)C(=O)Cc1ccccc1)OCCCC[C@H](C)O2	-8.6[16.7 µM]	11.1
CC(C)NC(=O)Nc1ccc2c(c1)C(=O)N([C@@H](C)CO)C[C@@H](C)[C@@H](CN(C)Cc1ccccc1)OCCCC[C@@H](C)O2	26.1[16.7 µM]	34.8
COCC#Cc1cnc2c(c1)C(=O)N([C@H](C)CO)C[C@H](C)[C@@H](CN(C)S(=O)(=O)c1cccc(OC)c1)O2	-25.5[16.7 µM]	24.4
CCC(=O)N[C@H]1CC[C@H](CCn2cc(C3CC3)nn2)O[C@H]1CO	-7.1[16.7 µM]	0.5
Cc1ccccc1-c1ccc2c(c1)O[C@H](CN(C)CC1CC1)[C@H](C)CN([C@H](C)CO)S2(=O)=O	15.6[16.7 µM]	25.7
COc1ccc(S(=O)(=O)Nc2cccc3c2O[C@@H](CN(C)Cc2ccccc2)[C@H](C)CN([C@H](C)CO)C3=O)cc1	-12.4[16.7 µM]	-0.8
O=C(CN1CCOCC1)N[C@@H]1CC[C@@H](CCNC(=O)C2CCCC2)O[C@@H]1CO	-5.2[16.7 µM]	-6.0
CCC(=O)N(C)C[C@@H]1Oc2cc(-c3ccc(C#N)cc3)ccc2S(=O)(=O)N([C@H](C)CO)C[C@H]1C	2.0[16.7 µM]	26.0
C[C@@H]1CN([C@@H](C)CO)C(=O)c2cccc(NC(=O)c3nc4ccccc4s3)c2O[C@@H]1CN(C)S(C)(=O)=O	-10.4[16.7 µM]	2.8
C[C@@H]1CN([C@@H](C)CO)C(=O)Cc2cc(NC(=O)Cn3cnnn3)ccc2O[C@H]1CN(C)S(=O)(=O)c1cccs1	28.7[16.7 µM]	11.2
O=C(C[C@H]1C=C[C@@H](NC(=O)c2ccc(F)cc2)[C@@H](CO)O1)NCCc1ccccc1	11.0[16.7 µM]	-13.5
COc1ccccc1S(=O)(=O)Nc1ccc2c(c1)OC[C@H](C)NC[C@@H](C)[C@@H](OC)CN(C)C2=O	-34.3[16.7 µM]	-5.7
O=C(Cc1ccncc1)Nc1ccc2c(c1)[C@H]1C[C@@H](CC(=O)N3CCCCC3)O[C@@H](CO)[C@H]1O2	-2.4[16.7 µM]	-1.6
Cc1noc(C)c1S(=O)(=O)N(C)C[C@H]1OCCCC[C@H](C)Oc2ccc(NC(=O)Cc3ccccc3)cc2C(=O)N([C@@H](C)CO)C[C@H]1C	9.0[16.7 µM]	-4.7
CC(C)NC(=O)N(C)C[C@H]1Oc2ncc(C#CCc3ccccc3)cc2C(=O)N([C@@H](C)CO)C[C@H]1C	10.7[16.7 µM]	24.9
CCCN(C)C[C@H]1Oc2cc(C#Cc3ccccc3F)ccc2S(=O)(=O)N([C@H](C)CO)C[C@H]1C	-7.3[16.7 µM]	30.5
COc1ccc(NC(=O)N[C@H]2CC[C@H](CCNC(=O)c3cc(Cl)cc(Cl)c3)O[C@H]2CO)cc1	3.7[16.7 µM]	-2.1
C[C@@H]1CN([C@H](C)CO)S(=O)(=O)c2ccc(C#CC(C)(C)O)cc2O[C@@H]1CN(C)CC1CC1	5.5[16.7 µM]	8.6
C[C@H]1CN([C@@H](C)CO)C(=O)c2cccc(NC(=O)c3nc4ccccc4s3)c2O[C@H]1CN(C)Cc1ccc(C(=O)O)cc1	-6.7[16.7 µM]	-8.4
Cc1noc(C)c1NC(=O)N(C)C[C@@H]1OCCCC[C@@H](C)Oc2ccc(NC(=O)Nc3ccccc3)cc2C(=O)N([C@H](C)CO)C[C@H]1C	-4.9[16.7 µM]	-15.2
O=C(C[C@H]1CC[C@@H](NC(=O)c2cccnc2)[C@H](CO)O1)NCCN1CCCCC1	1.2[16.7 µM]	-12.7
C[C@H](CO)N1C[C@H](C)[C@H](CN(C)C(=O)c2cccc(F)c2)Oc2ncc(C#CCN(C)C)cc2C1=O	1.1[16.7 µM]	-3.7
CC(C)C#Cc1cnc2c(c1)C(=O)N([C@H](C)CO)C[C@H](C)[C@H](CN(C)Cc1cccc(F)c1)O2	-11.9[16.7 µM]	6.8
O=C(O)C[C@H]1CC[C@H](NC(=O)Nc2cc(F)ccc2F)[C@H](CO)O1	13.3[16.7 µM]	-13.4
C[C@H](CO)N1C[C@H](C)[C@H](CN(C)Cc2ccncc2)Oc2ncc(-c3cccc(C#N)c3)cc2C1=O	-7.0[16.7 µM]	109.8*
C[C@H]1CN([C@@H](C)CO)S(=O)(=O)c2ccc(C#Cc3ccc(F)cc3)cc2O[C@H]1CN(C)C	2.4[16.7 µM]	3.2
CCNC(=O)C[C@H]1CC[C@H]2[C@H](COc3ccc(NC(=O)Nc4cccc(OC)c4)cc3C(=O)N2C)O1	-8.1[16.7 µM]	-6.1
CCCNC(=O)C[C@H]1CC[C@H]2[C@H](COc3ccc(NC(=O)COC)cc3C(=O)N2C)O1	8.4[16.7 µM]	11.4
CCCC#Cc1ccc2c(c1)O[C@H](CN(C)C(=O)Nc1ccc(OC)cc1)[C@H](C)CN([C@H](C)CO)S2(=O)=O	-27.9[16.7 µM]	-2.6
CN1C(=O)c2cc(NC(=O)C3CCCCC3)ccc2OC[C@H]2O[C@@H](CC(=O)NCCc3ccncc3)CC[C@H]21	16.9[16.7 µM]	4.3
C[C@H]1CN([C@@H](C)CO)S(=O)(=O)c2ccc(Br)cc2O[C@@H]1CN(C)C(=O)C1CCCCC1	54.3[16.7 µM]	5.8
O=C(CCN1CCCCC1)NCC[C@@H]1CC[C@@H](NC(=O)C2CCOCC2)[C@H](CO)O1	9.4[16.7 µM]	-17.1
COc1ccc(S(=O)(=O)N2C[C@H](O)COC[C@H]3O[C@H](CC(=O)N[C@@H]4CCN(Cc5ccccc5)C4)CC[C@@H]32)cc1	-9.9[16.7 µM]	17.7
C[C@@H](NC(=O)C[C@@H]1CC[C@H]2[C@@H](COC[C@H](O)CN2Cc2cc(F)ccc2F)O1)c1ccccc1	13.1[16.7 µM]	7.8
C[C@H](CO)N1C[C@H](C)[C@@H](CN(C)Cc2ccc(Cl)c(Cl)c2)Oc2ccc(NS(=O)(=O)c3cccs3)cc2C1=O	7.3[16.7 µM]	11.9
C[C@H](CO)N1C[C@H](C)[C@@H](CN(C)Cc2ccccc2)Oc2c(NC(=O)C3CCOCC3)cccc2C1=O	-17.2[16.7 µM]	-6.9
O=C(C[C@@H]1C=C[C@H](NC(=O)C2CCC2)[C@@H](CO)O1)NC1CCC1	-6.4[16.7 µM]	-4.4
O=C(C[C@H]1C=C[C@H](NC(=O)NC2CCCC2)[C@@H](CO)O1)NCc1ccc(F)cc1	12.4[16.7 µM]	2.0
O=C(C[C@H]1CC[C@@H](NC(=O)NC2CCCC2)[C@@H](CO)O1)NCc1ccc(F)cc1	4.0[16.7 µM]	-10.0
C[C@@H]1CN([C@H](C)CO)C(=O)Cc2cc(NC(=O)C3CC3)ccc2O[C@H]1CN(C)Cc1ccc(Oc2ccccc2)cc1	0.8[16.7 µM]	2.6
C[C@H](CO)N1C[C@H](C)[C@H](CN(C)C(=O)C2CCOCC2)Oc2ncc(C#CCc3ccccc3)cc2C1=O	-4.1[16.7 µM]	64.8
C[C@H]1CN([C@@H](C)CO)C(=O)c2cc(NC(=O)Cc3cn(C)c4ccccc34)ccc2O[C@@H]1CN(C)Cc1ccc(C(F)(F)F)cc1	4.7[16.7 µM]	6.5
N#C[C@H]1[C@@H](c2ccc(C#Cc3ccccc3F)cc2)[C@@H](CO)N1C(=O)C1CCCCC1	-9.5[16.7 µM]	-7.3
C[C@@H]1CN([C@@H](C)CO)C(=O)c2cc(NC(=O)Cc3cn(C)c4ccccc34)ccc2O[C@H]1CN(C)C(=O)Nc1ccc(C(F)(F)F)cc1	-14.4[16.7 µM]	-6.9
C[C@H]1CN([C@@H](C)CO)S(=O)(=O)c2ccc(C#Cc3ccccc3)cc2O[C@@H]1CN(C)C(=O)Nc1ccc2c(c1)OCO2	0.8[16.7 µM]	-1.7
C[C@H](O)C#Cc1ccc2c(c1)O[C@@H](CN(C)C(=O)CN(C)C)[C@H](C)CN([C@H](C)CO)S2(=O)=O	-16.3[16.7 µM]	27.2
O=C(N[C@@H]1CC[C@@H](CCNC(=O)C2CCOCC2)O[C@H]1CO)c1ccccn1	-15.7[16.7 µM]	-32.1
C[C@H](CO)N1C[C@H](C)[C@@H](CN(C)C(=O)CCCN(C)C)OCCCC[C@H](C)Oc2ccc(NS(C)(=O)=O)cc2C1=O	16.7[16.7 µM]	13.7
C[C@@H]1CN([C@@H](C)CO)S(=O)(=O)c2ccc(C#CCC3CCCC3)cc2O[C@H]1CN(C)C(=O)c1ccccn1	35.8[16.7 µM]	-6.6
C[C@@H](NC(=O)C[C@H]1C=C[C@H](NC(=O)C2CCOCC2)[C@@H](CO)O1)c1ccccc1	8.2[16.7 µM]	-6.2
C[C@@H]1CN([C@@H](C)CO)C(=O)Cc2cc(N(C)C)ccc2O[C@@H]1CN(C)C(=O)Nc1cccc2ccccc12	?	5.7
C[C@H]1CN([C@@H](C)CO)C(=O)c2cc(NS(=O)(=O)c3ccc(F)cc3)ccc2O[C@@H]1CN(C)Cc1ccc(Oc2ccccc2)cc1	25.5[16.7 µM]	8.9
CO[C@@H]1CN(C)C(=O)c2ccc(NC(=O)c3cccc(F)c3)cc2OC[C@H](C)NC[C@H]1C	-7.3[16.7 µM]	-12.0

Assay outcomes deposited in PubChem by Broad Institute.
